# PKD1 inh: PKD1 (human) kinase inhibition; inhibition, %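 (about 10 µM by stock and volumes)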; PKD1 kinase fluorescence polarization assay; AID 797; 200,000 compounds, 0.056% hits; Q15139;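 active means inhibition of 50% or more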;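 further: controls were vehicle for no effect and a reference inhibitor for full effect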
# Target sequence (Q15139 whole entry, looked up): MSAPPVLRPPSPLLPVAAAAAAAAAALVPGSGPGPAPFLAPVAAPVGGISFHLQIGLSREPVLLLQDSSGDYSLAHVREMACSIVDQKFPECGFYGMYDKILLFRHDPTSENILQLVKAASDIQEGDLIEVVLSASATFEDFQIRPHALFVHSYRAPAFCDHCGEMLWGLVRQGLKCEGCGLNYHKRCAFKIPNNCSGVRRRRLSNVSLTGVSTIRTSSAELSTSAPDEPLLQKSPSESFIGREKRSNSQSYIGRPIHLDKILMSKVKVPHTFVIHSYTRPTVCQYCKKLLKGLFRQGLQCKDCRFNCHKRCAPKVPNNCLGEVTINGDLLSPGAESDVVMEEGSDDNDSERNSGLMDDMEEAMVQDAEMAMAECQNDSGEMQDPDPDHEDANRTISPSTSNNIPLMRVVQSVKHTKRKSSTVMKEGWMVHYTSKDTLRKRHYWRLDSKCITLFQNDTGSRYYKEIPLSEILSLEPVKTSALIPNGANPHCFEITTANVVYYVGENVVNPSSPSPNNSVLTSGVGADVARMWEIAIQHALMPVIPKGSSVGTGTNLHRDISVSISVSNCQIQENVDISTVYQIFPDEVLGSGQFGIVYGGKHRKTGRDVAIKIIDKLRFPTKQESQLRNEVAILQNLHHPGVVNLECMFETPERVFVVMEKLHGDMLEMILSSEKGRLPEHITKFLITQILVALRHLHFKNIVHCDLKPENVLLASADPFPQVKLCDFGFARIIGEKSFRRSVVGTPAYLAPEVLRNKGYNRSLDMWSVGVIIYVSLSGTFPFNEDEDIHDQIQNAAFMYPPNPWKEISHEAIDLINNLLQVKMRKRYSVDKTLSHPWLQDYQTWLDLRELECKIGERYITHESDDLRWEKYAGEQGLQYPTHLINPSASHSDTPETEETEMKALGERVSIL
# HSV augment: HSV replication enhancement; HSV replication augmentation in cells, fold increase; maximum fold increase; 220,000 compounds, 0.005% hits; AID 1956;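 active means peak rise of 1.5-fold or more in the series; inconclusive means self-fluorescent or not available for retest; tested in PC3 cells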;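 further: first round at 10 µM; read as green reporter fluorescence; hits show the peak of a series up to 25 µM; 1 = signal of infected wells without compound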
# Insulin prom inh: TRM-6 insulin promoter activity inhibition; TRM-6 cells (human fetal islet line), insulin promoter-eGFP reporter, imaging; reporter expression induced with tamoxifen; inhibition, % at 2 µM; 130,000 compounds, 0.9% hits;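 active means inhibition above the mean plus 3 SD, with well images judged a real hit on visual review, cut at about 60% in these data, passing the limit was not always enough; inconclusive means inhibition over the cutoff but images rejected on review; inactive means inhibition not above the cutoff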
# GALR2 ag: GALR2 (human) receptor agonism | activation, %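 (tested at 5 µM)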 | AID 803 | GALR2-expressing cells, agonist activation read-out | O43603 | 140,000 compounds, 0.48% hits;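 active means above mean plus 3 SD of all compounds, about 5% in these data, not always enough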;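 further: 0% = vehicle buffer wells and 100% = reference agonist at full effect; tested in CHO reporter cells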
# RGS16-Gao HTS: modulates binding between human RGS16 and Galphao; AID 1441; 220,000 compounds, 0.38% hits; bead-based flow cytometry RGS16-Galphao binding, fluorescence; actives lie on both sides; binding response (% of control), % at 10 µM;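 active means below 25% or above 175%, edge rows of some plates excepted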;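 further: Galphao activated by GDP with aluminum fluoride before binding; 100% = wells without compound and 0% = beads without RGS; some results beyond the cut were filed as inactive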
# Insulin prom inh cell count: recorded beside Insulin prom inh, whose call it bears; normalized cell count, %; measured here: cell count, toxicity; reference of the scale not given here;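 cells exposed to compound for 48 h; stained nuclei by imaging scaled within each plate; lower means fewer cells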
# HSV augment primary fold: second read-out of HSV augment, no call of its own (marks repeat the call); fold increase; compound at 10 µM; measured here: primary screen fold increase 10 uM; tested in PC3 cells;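 GFP signal in the first replicate; 1 = infected wells without compound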
# * marks the source's active call; other numbers are inactive results; i = inactive; ? = inconclusive; · = not tested or not shown.
SMILES,PKD1 inh,HSV augment,HSV augment primary fold,Insulin prom inh,Insulin prom inh cell count,GALR2 ag,RGS16-Gao HTS
COc1cc([N+](=O)[O-])cc2cc(C(=O)NC(C)(C)C)c(=O)oc12,-2,i,0.85,35,119,·,91
CC(=O)N1CCN(C(C)=O)C1c1ccccc1,8,i,0.81,50,129,-2.1,103
O=C(NCC1CCCO1)C1CCCN(Cc2cnn(-c3ccccc3)c2-n2cccc2)C1 (centres undefined),1,i,0.99,-26,85,0.6,100
CN(C)c1cc[n+](CC(=O)c2ccc(OC(F)F)cc2)cc1,·,i,1.1,·,·,·,100
COc1ccnc(N=CNOCc2cccc(Cl)c2Cl)c1C#N,-9,i,0.91,-29,209,-0.9,104
CC(NC(=O)Cn1c(NCCO)nc2ccccc21)c1ccccc1 (centres undefined),-5,i,0.97,-20,153,-2.2,103
O=C(NC(=S)Nc1ccc(S(=O)(=O)N2CCCCCC2)cc1)c1cccs1,-10,i,1.1,4,97,0.4,98
Cc1cccc(C)c1OCc1nnc(SCC(=O)Nc2nccs2)n1-c1ccccc1,-5,i,0.8,21,133,6.5*,76
COc1ccc(-c2nn(-c3ccccc3)cc2/C=N/NS(=O)(=O)c2ccccc2)cc1,-2,·,·,·,·,-1.6,105
Cc1ccc(-c2cc(C(=O)N/N=C/c3c[nH]c4ccccc34)[nH]n2)cc1,-1,i,0.58,-120,2,-1.5,120
O=C(Nc1ccc(S(=O)(=O)N2CCCC2)cc1Cl)C1=COCCO1,-3,i,0.88,16,147,-1.7,102
COc1ccc(N(CC(=O)N2CCC(C)CC2)S(=O)(=O)c2c(C)nn(C)c2C)cc1,7,i,0.98,·,·,-1.0,101
CCCn1c(=NC(C)=O)c(C#N)cc2c(=O)n3cccc(C)c3nc21,1,·,·,36,116,2.7,·
Cc1ccc2c(C)cc(=S)[nH]c2c1,0,i,1.1,47,97,·,98
COC(=O)c1nn(-c2ccccc2)c(Sc2ccc(OC)cc2)c1/C=N/O,-6,i,1,-23,86,-1.4,99
Cc1ccc(SCCC(=O)Nc2ccc(Br)c(C)c2)cc1,-7,i,1.3,·,·,-0.5,87
CCOC(=O)N/N=C(C)/C=C/c1ccccc1,-14,i,0.98,·,·,-0.9,93
O=C(NC1(C(F)(F)F)NC(=O)N(Cc2cccnc2)C1=O)c1ccc(F)cc1 (centres undefined),-7,i,0.94,-63,42,-1.5,100
CC(=O)c1ccc(OCC(=O)Nc2ccc3nc(C)sc3c2)cc1,0,i,0.86,·,·,·,107
COC(=O)c1ccc(COC(=O)c2ccc(N(C)C)cc2)cc1,-21,i,1.2,16,73,-1.7,97

# Shown as a hit in GALR2 ag, of those listed so far:
mol,PKD1 inh,HSV augment,HSV augment primary fold,GALR2 ag,RGS16-Gao HTS
Cc1cccc(C)c1OCc1nnc(SCC(=O)Nc2nccs2)n1-c1ccccc1,-5,i,0.8,6.5*,76

# Additional results follow.
SMILES,PKD1 inh,HSV augment,HSV augment primary fold,Insulin prom inh,Insulin prom inh cell count,GALR2 ag,RGS16-Gao HTS
CCCCNc1nc(C)c(C(C)=O)cc1C#N,-11,i,0.85,·,·,·,101
Cc1noc(C)c1S(=O)(=O)N1CCC(C(=O)N2CCN(C3CCCC3)CC2)CC1,2,·,·,·,·,-0.7,106
CC(O)[C@H]1CNC(=O)C(=O)N1CC1CCCCC1 (some centres undefined),·,i,1.1,·,·,·,103
CCCC(=O)NCCc1cc(OC)c(OC)cc1Br,4,i,0.92,-56,114,-0.5,103
C=CCC1NCCc2c(Br)cccc21 (centres undefined),-6,i,1.1,·,·,·,101
COc1ccc(NC(=O)CSc2nnc(-c3ccccc3)n2Cc2ccco2)c(OC)c1,0,i,0.93,·,·,0.2,99
C=CCOc1c(Br)cc(CNn2cn[nH]c2=S)cc1OC,3,i,1,24,110,·,98
COc1cccc(C(=O)C2CCCN(Cc3cn(CC(N)=O)c4ccccc34)C2)c1 (centres undefined),6,i,0.96,-6,42,·,101
Cc1ccc(S(=O)(=O)/N=S(\C)C(C)C)cc1 (centres undefined),-14,i,0.91,21,107,-0.3,112
Cc1ccc(S(=O)(=O)n2cnc3cc([N+](=O)[O-])ccc32)cc1C,15,i,0.91,3,114,-0.5,106
COc1ccc(C(=O)OC(C(=O)c2ccccc2)c2ccccc2)cc1 (centres undefined),-5,i,0.8,10,109,-1.5,103
COc1ccc(NC(=O)CN2C(=O)C(C)Oc3ccccc32)cc1 (centres undefined),-8,i,1.1,-248,82,-3.0,119
Cc1ccc(-c2csc3nc4cc(C(=O)NC5CCC(O)CC5)ccc4c(=O)n23)cc1 (centres undefined),·,i,0.83,·,·,·,92
Cc1cccc(C(=O)NC2C(=O)NNC2c2ccc(Cl)cc2)c1 (centres undefined),-8,i,1.2,-18,77,·,109
CCC(=O)Nc1ccc(N2CCCCC2)c(C(=O)Nc2ccccc2C)c1,-3,i,0.88,43,70,-1.4,100
Oc1ccc(Br)cc1-c1cc(-c2ccc(Cl)cc2)n[nH]1,-5,i,0.86,-34,230,-3.3,101
Cc1cc(C)c(C#N)c(SCCS(=O)(=O)c2ccc(C(C)(C)C)cc2)n1,3,i,0.87,-28,81,-1.5,·
CCCCN1CCc2c1nc1ccc(Br)cc1c2N,-2,i,0.88,87*,127*,-0.8,104
N#CCCN(CCC#N)c1nncs1,3,i,0.93,·,·,0.8,98
Cn1cc(C(=O)c2ccccc2)cc1-c1nc2ccccc2n1C,-20,i,0.85,-19,116,-0.9,95
COc1ccccc1N(C)S(=O)(=O)c1ccc(C(=O)OCC(=O)NCC(F)(F)F)cc1,-2,i,1,7,88,·,105
C=C(C)C1CC=C(C)/C(=N\NC(=O)CCC(=O)Nc2ccc(C)c(C)c2)C1 (centres undefined),·,i,1,·,·,·,104
O=C(O)c1ccc2c(c1)C(=O)N(C(Cc1ccccc1)C(=O)O)C2=O (centres undefined),-1,i,1.1,13,129,-3.8,102
Nc1cc2ccncc2c2ccccc12,·,i,0.6,·,·,·,166
CS(=O)(=O)N1N=C(c2ccc(Br)cc2)CC1c1cccs1 (centres undefined),-1,i,0.81,25,101,-2.5,131
O=S(=O)(NC1=NCCCCC1)c1ccccc1Cl,·,i,0.98,·,·,·,96
Cc1ccc(N=C2NC(=O)/C(=C/c3cccn3C)S2)c(C)c1,·,i,0.81,·,·,·,97
CCC(C)(C)n1nnnc1CN1CCC(NC(=O)c2ccc(Br)cc2)CC1,-2,i,1.1,45,126,-1.5,111
O=C(C[n+]1cccc(CNC(=O)c2ccc(OC(F)F)cc2)c1)Nc1ccc(F)cc1,-6,i,0.96,·,·,-2.1,21*
Cc1cc(NC(=O)c2ccccc2F)nc2c1c(=O)oc1ccccc12,5,i,0.84,44,79,·,98
S=c1[nH]nc(CN2CCCCC2)n1-c1ccc(Cl)cc1,-1,i,0.9,·,·,·,98
C=CCNC(=O)C12CC3CC(C1)CC(C(=O)NCC=C)(C3)C2,-3,i,0.7,38,104,-1.7,103
COc1ccc(-n2cnc3cc([N+](=O)[O-])ccc32)cc1,3,i,1,-17,52,·,78
CCCCCCn1c(=O)[nH]c2nc3cc(N)c(C)cc3nc2c1=O,20,?,·,·,·,0.7,109
CCOC(=O)C1CCN(S(=O)(=O)c2cccc(-c3cn4ccccc4n3)c2)CC1,3,i,1,·,·,0.8,80
O=c1[nH]nc(CNc2ccc(O)cc2)c2ccccc12,3,i,0.73,-107,104,-1.5,101
CCn1nc(C)c(Br)c1Nc1ccc(Br)cc1,0,i,0.92,·,·,·,99
COC(=O)c1cnc(N2CCCN(S(=O)(=O)c3ccccc3)CC2)nc1C(F)(F)F,·,i,1.1,·,·,·,99
CN(c1ccc(C(=O)O)cc1)S(=O)(=O)c1ccccc1,-12,i,0.99,-41,99,-1.6,89
Cc1ccc(S(=O)(=O)/N=C(\N)Nc2nc(C)c3ccc(C)cc3n2)cc1,-2,i,0.99,-33,118,-1.9,100

# 2 entries picked at random from the list so far, as already listed:
SMILES,PKD1 inh,HSV augment,HSV augment primary fold,Insulin prom inh,Insulin prom inh cell count,GALR2 ag,RGS16-Gao HTS
COc1ccccc1N(C)S(=O)(=O)c1ccc(C(=O)OCC(=O)NCC(F)(F)F)cc1,-2,i,1,7,88,·,105
CCCCCCn1c(=O)[nH]c2nc3cc(N)c(C)cc3nc2c1=O,20,?,·,·,·,0.7,109

# The main list resumes, repeating the 4 entries before the break.
SMILES,PKD1 inh,HSV augment,HSV augment primary fold,Insulin prom inh,Insulin prom inh cell count,GALR2 ag,RGS16-Gao HTS
CCn1nc(C)c(Br)c1Nc1ccc(Br)cc1,0,i,0.92,·,·,·,99
COC(=O)c1cnc(N2CCCN(S(=O)(=O)c3ccccc3)CC2)nc1C(F)(F)F,·,i,1.1,·,·,·,99
CN(c1ccc(C(=O)O)cc1)S(=O)(=O)c1ccccc1,-12,i,0.99,-41,99,-1.6,89
Cc1ccc(S(=O)(=O)/N=C(\N)Nc2nc(C)c3ccc(C)cc3n2)cc1,-2,i,0.99,-33,118,-1.9,100
CCOC(=O)NC(=O)COC(=O)c1ccc(O)cc1,-1,i,0.94,·,·,·,101
O=C(Nc1ccc(F)cc1)N(Cc1ccco1)Cc1cc2cc3c(cc2[nH]c1=O)OCO3,-11,i,0.88,7,141,-1.7,85
Cc1cccc(NC(=O)CSCc2c(C)noc2C)c1C,-4,i,0.71,·,·,0.1,87
CCOc1ccc(N(CC(=O)NC2CCCCCC2)S(=O)(=O)c2c(C)[nH]c(=O)[nH]c2=O)cc1,-4,i,1,·,·,-0.3,100
O=C(CN1C(=O)C2CC=CCC2C1=O)Nc1ccc(S(=O)(=O)NC2=NCCCCC2)cc1 (centres undefined),-20,i,1,·,·,-3.9,100
CC(=O)Oc1ccc2c(C)c(CC(C)O)c(=O)oc2c1 (centres undefined),6,i,1,31,124,2.4,101
CC[n+]1ccccc1/C=C/Nc1ccccc1,-5,i,0.87,·,·,·,112
O=C(NCc1ccc(F)cc1)c1ccc(N2CCc3ccccc32)c([N+](=O)[O-])c1,-9,i,0.94,-3,176,-0.8,104
Cc1cc(C)c2c(n1)sc1c(N3CCOCC3)ncnc12,4,·,·,-40,175,-1.7,·
COC(=O)c1ccccc1OCCCOc1ccc(C)cc1OC,-12,i,0.92,-28,42,-1.0,101
CC(=O)c1ccc(N2CCN(C(=S)Nc3ccc(Cl)c(Cl)c3)CC2)cc1,-4,i,0.85,18,81,·,98
CC(C)CC(=O)NS(=O)(=O)c1ccc(NS(C)(=O)=O)cc1,1,i,1,·,·,·,107
CCOC(=O)N1CCN(CC(=O)Nc2ccc(C)cc2)CC1,-3,i,1.1,21,108,-0.1,97
CCN(CC)S(=O)(=O)c1ccc(N2CCOCC2)c(NC(=O)CNCCc2ccccc2)c1,·,i,0.89,·,·,·,85
CC(=O)N1c2ccccc2C2(C)C(C1(C)C)C2(Cl)Cl (centres undefined),12,i,1,·,·,·,104
COc1ccc(NC(=S)NC2CC3CCC(C2)N3Cc2ccco2)cc1 (centres undefined),3,i,0.96,·,·,·,241
CCN(C(=O)[C@@H]1CCCN1C(=O)c1cccs1)c1nc2cc(Cl)ccc2s1,11,i,1.1,-6,61,-1.5,85
O=C(COC(=O)C1=COCCO1)NC1CCCCCCC1,4,i,0.95,64,92,·,118
COc1ccccc1N(C(=O)c1ccco1)C(C(=O)NC1CCCC1)c1cccnc1 (centres undefined),-7,i,1,·,·,0.5,104
Cc1ccc(-c2nc3sc(C#N)c(N)n3c(=O)c2C#N)cc1,1,i,0.99,·,·,·,95
CCOc1ccc2nc(SCC(=O)N3CCN(C(=O)c4ccco4)CC3)sc2c1,-6,i,1,40,114,-3.5,102
COCCNC(=S)NCCCNc1nc2cc3c(cc2cc1C#N)OCO3,2,i,0.76,35,97,7.2,100
N#CCC(=N)N1CCN(c2ccc(Cl)cc2)CC1,5,i,0.97,-3,109,-1.1,99
S=C(NC1CCCC1)N1CCN(c2ncccn2)CC1,0,i,0.88,·,·,·,98
O=C(c1cccc(C(=O)N2CCN(c3ccccc3F)CC2)n1)N1CCN(c2ccccc2F)CC1,-7,i,0.57,-92,99,-1.1,107
Cc1ccccc1CS(=O)(=O)c1nnc([C@H](CC(C)C)NC(=O)OC(C)(C)C)o1,-5,i,0.76,42,42,1.7,97
Cc1ccc(/C=C/C(=O)OCC(=O)NCCN2C(=O)CSC2=O)o1,-6,i,0.96,·,·,·,91
O=C(O)c1nn(-c2ccccc2)ccc1=O,9,i,1,·,·,-2.2,99
Cc1c(Cl)cccc1NC(=S)NN1CCOCC1,-5,i,1.1,15,55,-1.4,104
O=C1CCC(C(=O)Nc2ccccc2)N1 (centres undefined),-3,i,0.98,61,116,-1.1,101
C=CCN(CC(=O)NC1CCS(=O)(=O)C1)S(=O)(=O)c1ccccc1C(F)(F)F (centres undefined),5,i,1,·,·,·,101

# Source: PubChem BioAssay

# Hits appear at their usual frequency; 1.3% or so of the library scored in one or more.
